Vif A3G: HIV-1 Vif–A3G interaction blockers – biochemical, TR-FRET, GST-Vif 1-94, biotin-A3G peptide, dose response retest, primary screen (AID 1117319) | TR-FRET GST-Vif / biotin-A3G peptide binding; higher % means a stronger effect; test concentration not given here; strong numbers were not always called active | inhibition, %; hits with a dose series show IC50 in µM | 0.57% of 260,000 active;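 active means above the screen mean plus three standard deviations and confirmed in dose response; inconclusive means results disagree or hit not tested in dose response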;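 further: Vif residues 1-94 fused to GST binding biotinylated APOBEC3G peptide 110-148; 0% = full assay without inhibitor and 100% = GST in place of GST-Vif; retest series ran down from 100 µM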
T cruzi inh: T. cruzi replication inhibition; AID 1885; T. cruzi beta-gal in NIH3T3, luminescence, 90 h; 1.4% of 300,000 active; inhibition, % (no concentration beside the values);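 active means mean inhibition across valid replicates above about 55%, limit read from the data; inconclusive means mean below that limit but half or more replicates reach it; inactive means mean below it, under half of replicates reach it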;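 further: signal also drops with host cell toxicity which is not excluded here; 0% = plate median of DMSO wells and 100% = zero luminescence signal; higher percent means less beta-gal luminescence so fewer parasites; stock transfer was 50 nL into about 50 µL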
Beta apoptosis: blocks beta cell apoptosis; INS-1E cytokine-induced death, ATP luminescence, 48 h; percent of positive-control rescue, neutral wells zero; protection from apoptosis, % (no concentration beside the values); 0.8% of 300,000 active; AID 435005;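 active means all replicates at 75% or more, or half of them and the mean; inconclusive means half reach 75% but not the mean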;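 further: 0% = cytokine-treated negative control wells and 100% = positive control rescue; higher means more ATP so stronger rescue from cytokine killing; wells of about 40 µL received 100 nL stock; the first replicate is given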
RanGTP-Impb inh: inhibitors of RanGTP-importin-beta interaction, primary screen, biochemical, FRET, CFP-Ran, YFP-importin-beta, homogeneous; cell-free CFP-Ran/YFP-importin-beta FRET ratio; inhibition, % (concentration not given with the values); 1.1% of 300,000 active;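 active means most replicates above 15%; inconclusive means exactly half above 15%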;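 further: 0% = DMSO wells and 100% = Ran loaded with GDP instead of GTP; wells of about 40 µL received 100 nL stock; the first replicate is given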
Bfl-1 A1 inh: inhibitors of the anti-apoptotic protein A1, read as caspase activation; AID 2462; MEF A1-2A-BIM cells, Caspase-Glo 3/7 luminescence, 3 h; percent of clofoctol response, vehicle zero; caspase activation, % (concentration not given with the values); 0.066% of 330,000 active;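 active means over half of replicate activation scores above 10%, or exactly half above 10 with the replicate mean above 10; inconclusive means replicate mean below 10 yet half the replicates above 10; inactive means over half of replicates below 10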;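 further: wells of about 30 µL received 50 nL stock; many hits fall short of the cut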
Ecoli rRNA inh: inhibits bacterial ribosomal RNA function over humanized ribosomes; E. coli WT GFP vs humanized-ribosome RFP mutants, fluorescence, 24 h; hits give low values; DMSO median 0, no signal -100; GFP signal change (wild-type ribosome), % (concentration not given with the values); 1.6% of 350,000 active;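 active means significant combined selectivity score with lowered wild-type GFP, culture density cut under 30%, mutant RFP and density less affected; inactive means any of these conditions unmet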; further: one replicate is shown; some compounds called inactive have numbers as strong as hits
MLL AF4-AF9 inh: MLL-AF4/AF9 protein interaction inhibition | P42568 | AlphaScreen, biotin-AF4 peptide binding to FLAG-AF9 | inhibition, % at 10 µM | 0.47% of 350,000 active | AID 651704;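 active means every replicate reaching a set inhibition limit, whatever the replicate mean, cut at about 25% in these data; inconclusive means mean inhibition reaches that limit but some replicates miss it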;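 further: 0% = plate neutral control median and 100% = total signal loss; the record names both 10 and 1 µM as test concentration; the first replicate is given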
Target sequence (P42568 whole entry, looked up): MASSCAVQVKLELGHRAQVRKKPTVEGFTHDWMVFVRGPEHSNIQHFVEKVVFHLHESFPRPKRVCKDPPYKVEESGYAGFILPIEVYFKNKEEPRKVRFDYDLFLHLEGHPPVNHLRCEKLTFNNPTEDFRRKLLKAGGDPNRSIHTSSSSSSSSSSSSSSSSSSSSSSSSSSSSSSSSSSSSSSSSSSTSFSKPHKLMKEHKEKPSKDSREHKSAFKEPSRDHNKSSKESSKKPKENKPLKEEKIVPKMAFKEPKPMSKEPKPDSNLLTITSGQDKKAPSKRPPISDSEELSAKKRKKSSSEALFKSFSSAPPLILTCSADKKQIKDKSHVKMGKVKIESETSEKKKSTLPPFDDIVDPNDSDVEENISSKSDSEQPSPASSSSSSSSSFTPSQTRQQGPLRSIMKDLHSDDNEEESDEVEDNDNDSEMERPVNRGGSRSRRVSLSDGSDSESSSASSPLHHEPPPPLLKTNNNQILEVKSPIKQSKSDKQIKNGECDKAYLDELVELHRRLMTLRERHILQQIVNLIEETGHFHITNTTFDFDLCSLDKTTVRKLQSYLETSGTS
Calb FLC: C. albicans growth modulation with fluconazole. C. albicans CaCi-2 (fluconazole-resistant clinical isolate) + fluconazole, Alamar Blue growth, 48 h. growth inhibition, % (no concentration beside the values). 0.57% of 300,000 active;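 active means most replicates above 75%; inconclusive means exactly half above 75%; inactive means most below 75%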;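 further: all wells also contain fluconazole at 8 µg/ml as a sub-toxic cotreatment; 0% = median of DMSO wells and 100% = median of geldanamycin control wells; wells of about 8 µL received 7.5 nL stock; the first replicate is given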
Ecoli rRNA inh OD600: recorded beside Ecoli rRNA inh, whose call it bears; OD600 change, %; measured here: OD600 growth;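 optical density of the mix in the first replicate; 0 = DMSO median and -100 = no signal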
Ecoli rRNA inh RFP: recorded beside Ecoli rRNA inh, whose call it bears; RFP signal change, %; measured here: RFP humanized mutant strains;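 first replicate; 0 = DMSO median and -100 = no signal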
Starred values were filed as active, the others as inactive; ? = inconclusive; . = no result given; & = joins results of further samples. These rows are one share of the data; rates above refer to the full screens.

SMILES	Vif A3G	T cruzi inh	Beta apoptosis	RanGTP-Impb inh	Bfl-1 A1 inh	Ecoli rRNA inh	Ecoli rRNA inh OD600	Ecoli rRNA inh RFP	MLL AF4-AF9 inh	Calb FLC
CC(=O)NCCc1nc(-c2ccc(Cl)cc2)no1	.	-19	1	5.8	0.1	1	3	0.4	-24	5
O=C(COC(=O)c1ccc(S(=O)(=O)N2CCCCCC2)cc1)NCc1ccc(Cl)cc1	-5%	.	0	.	0.1	27	24	-1.0	-2.0	.
Cc1ccc(C(=O)NC(=S)N2CCN(C)CC2)cc1	-3%	-2	-1	5.0	0.9	.	.	.	.	-12
COc1ccc(S(=O)(=O)N(C)C)cc1NC(=O)c1ccc2c(c1)NC(=O)C(C)S2 (stereo unspecified)	0%	.	2	.	-0.6	-21*	-12*	7.6*	1.9	.
COc1ccc(C(CNC(=O)COc2ccc(Cl)c(C)c2)N2CCCCC2)cc1 (stereo unspecified)	-1%	22	.	1.0	.	5	-12	-0.4	6.6	-2
Nc1c(-c2nn[nH]n2)cnn1-c1cc(Cl)cc(Cl)c1	6%	5	-3	3.7	-3.2	-24	-20	-5.9	0.1	-4
CCCn1c(C(C)Nc2nc(-c3ccc(Cl)c([N+](=O)[O-])c3)cs2)nc2ccccc21 (stereo unspecified)	.	1	1	3.3	-0.4	14	7	-1.6	7.5	9
Cc1cc([N+](=O)[O-])ccc1NC(=O)CN1C2CCC1CC(NC(=O)NC13CC4CC(CC(C4)C1)C3)C2 (stereo unspecified)	0%	26	7	4.8	0.1	-11	-3	-7.8	2.9	4
O=C(O)CC(C(=O)OCCOc1ccccc1)N1CCOCC1 (stereo unspecified)	19%	-4	-1	4.6	-1.3	.	.	.	.	4
CCOc1ccccc1C(=O)NCc1ccc2c(c1)OCO2	-2%	-1	-6	-3.0	0.4	.	.	.	.	1
COC(=O)c1ccc2ncccc2c1	1%	6	-5	-3.5	0.4	.	.	.	.	3
NS(=O)(=O)c1ccc(Nc2nc(-c3cccc([N+](=O)[O-])c3)cs2)cc1	17%	58*	19	-0.6	0.4	-27*	-21*	-5.5*	0.8	-8
CCCCCCCCCn1ccc(=N)cc1	.	30	116*	1.4	-1.3	-46	-62	-11	.	70
CCOc1ccc(N(Cc2nnc3n2CCCCC3)C(=O)Nc2cccc(C)c2)cc1	-2%	9	-3	6.5	0.4	10	1	7.5	-3.3	5
COc1ccc(-n2c(SCC#N)nc3c(sc(=S)n3-c3ccccc3)c2=O)c(OC)c1	1%	15	.	0.4	-0.1	4	6	2.4	3.8	-2

The list goes on, starting with the last 2 of the part before.
SMILES	Vif A3G	T cruzi inh	Beta apoptosis	RanGTP-Impb inh	Bfl-1 A1 inh	Ecoli rRNA inh	Ecoli rRNA inh OD600	Ecoli rRNA inh RFP	MLL AF4-AF9 inh	Calb FLC
CCOc1ccc(N(Cc2nnc3n2CCCCC3)C(=O)Nc2cccc(C)c2)cc1	-2%	9	-3	6.5	0.4	10	1	7.5	-3.3	5
COc1ccc(-n2c(SCC#N)nc3c(sc(=S)n3-c3ccccc3)c2=O)c(OC)c1	1%	15	.	0.4	-0.1	4	6	2.4	3.8	-2
CCc1ccc(-c2csc(NC(=O)C3CCCO3)c2C(=O)OC(C)C)cc1 (stereo unspecified)	-1%	18	.	2.0	0.5	.	.	.	.	-3
CC1CC(C)CN(c2ncc3c(n2)CC(c2ccccc2)CC3=O)C1 (stereo unspecified)	4%	10	6	1.7	0.3	.	.	.	.	-5
O=C(Nc1ccc(F)cc1)C1(S(=O)(=O)c2ccc(Cl)cc2)CC1	.	-15	-2	?	-0.2	-3	-3	-0.5	-1.8	-3
CCOC(=O)C1=C(COC(=O)Cc2ccccc2)NC(=O)NC1C (stereo unspecified)	3%	-10	-7	1.7	0.5	6	17	0.8	-0.9	-10
O=C(Cc1cc(=O)oc2cc(O)ccc12)N[C@@H](Cc1c[nH]c2ccccc12)C(=O)O	-4%	0	0	21*	0.8	11	9	-1.2	1.7	0
CN(Cc1ccccc1)C(=O)c1cc2cc(F)ccc2[nH]1	-11%	1	-6	-1.6	-1.9	11	6	2.0	-1.8	-2
CCN(CC)CCN1C(=O)C(=O)/C(=C(/O)c2ccc(C)cc2)C1c1ccncc1 (stereo unspecified)	72%	-12	.	-1.6	.	.	.	.	.	13
Cc1cc(Cl)ccc1OC(C)C(=O)NN1C(=O)c2ccccc2C1=O (stereo unspecified)	2%	-1	-5	9.9	0.4	-3	3	1.3	-0.3	-8
Cc1noc(C)c1COc1ccc(C(=O)NCc2ccccn2)cc1	-1%	-7	0	0.5	-1.8	.	.	.	.	-6
O=C(Nc1ccc(NC(=O)c2cccs2)cc1)c1ccc2c(c1)OCO2	-7%	-8	-3	-2.2	-5.0	9	7	-4.1	3.9	5
O=C(N/N=C/c1ccc(Br)cc1)c1ccc(F)cc1	-8%	-9	-3	3.3	-3.6	.	.	.	.	1
Cc1c(N=C2N=C(NC(=O)NC(C)(C)C)c3ccccc32)c(=O)n(-c2ccccc2)n1C	.	-5	8	-0.8	0.7	13	10	12	-3.5	5
COc1ccc(OC)c(N2C(=O)CCCC2=O)c1	10%	2	1	-1.5	0.8	10	12	1.3	-11	0
COc1ccc(N2CCN(C(=O)Nc3ccc(S(=O)(=O)N(C)C)cc3)CC2)cc1	25%	-6	-2	2.3	0.3	.	.	.	.	-31
Cc1ccc(/C=N/Nc2cccc3cccnc23)c(O)c1	?	6	8	-3.8	-10	-11	-7	-1.5	0.7	0
COc1cc(/C=N\NC(=O)C(C)(C)O)ccc1OC/C=C/c1ccccc1	.	6	-2	-1.1	0.0	.	.	.	1.8	-24
C=CCn1c(=O)c(C(=O)Nc2ccc(C)cc2)c(O)c2ccccc21	-9%	4	.	28*	0.1	7	11	0.2	1.2	2
CCOc1ccc(NC(=O)CSc2nnc(-c3cc(C)[nH]n3)n2N)cc1	.	15	3	-4.4	-0.4	-1	3	-3.1	-0.1	0
N#CCCN(Cc1ccccc1)C(=S)NC(=O)c1ccccc1	-1%	7	-2	4.6	0.4	.	.	.	.	-4
Cc1ccc(C)c(N(CC(=O)NC2CCCC2)C(=O)CCC(=O)Nc2cc(C)on2)c1	.	-3	-3	-4.9	-0.4	2	6	0.5	2.5	4
Cc1cccc(C(=O)OCC(=O)N2CCCC2=O)c1O	3%	.	-2	.	0.5	1	1	-0.7	-1.7	.
Fc1ccc2cnc(-c3ccccc3F)cc2c1	.	.	1	.	-11	9	11	8.3	1.7	.
CC(C)c1ccc2c(c1)C(c1cccs1)=NNC(c1ccncc1)=N2	-1%	36	7	1.6	-2.2	12	11	1.7	4.8	20
CC1(c2ccccc2Cl)NC(=O)N(CC(=O)N2c3ccccc3NC(=O)C2(C)C)C1=O (stereo unspecified)	9%	.	-5	.	-0.5	-2	-6	1.6	0.2	.
COc1ccc2oc(=O)cc(CN3CCN(Cc4ccc(OC)c(OC)c4OC)CC3)c2c1	-3%	8	-5	-1.9	0.2	-7	-2	-6.4	3.2	1
COc1cc(Cl)ccc1OCc1cc(C(=O)N2CCCCC2c2cccnc2)no1 (stereo unspecified)	.	35	3	0.5	-0.2	5	-17	8.6	1.3	4
C=C(C)CN(CC)C(=O)COc1ccc(S(=O)(=O)Nc2ccc(OC)cc2)cc1	33%	-9	0	2.8	-0.1	.	.	.	.	5
CCn1c(CNC(C)=O)nnc1SCC(=O)c1ccc(Br)cc1	66%	-6	5	-1.9	0.2	.	.	.	.	4
CCN(CC1CCCN(CCc2cccc(OC)c2)C1)C(=O)C=C(C)C (stereo unspecified)	.	51	.	1.8	-0.5	18	19	2.2	-2.0	-12
COc1cccc(NC(=O)CCCn2nc(C)c3c(C)n(-c4ccccc4)nc3c2=O)c1	.	-5	0	-0.2	1.2	10	8	1.3	-1.2	-5
C=CCN=C1NN=C(c2cc(C)n(CCOC)c2C)CS1	.	-1	-2	0.9	-1.2	7	15	0.0	3.7	-5
CCCCc1nc2c(C)c(N)cnc2n1Cc1cccc([N+](=O)[O-])c1	1%	15	8	?	1.4	-1	5	0.7	5.1	.
O=C(NCc1cccc(Cl)c1)c1cc(COc2ccc3ncccc3c2)on1	0%	-44	66	3.8	-0.6	.	.	.	-2.4	?
O=C(O)CCCN=CC1=C(O)C(C(=O)c2ccccc2)CCC1=O (stereo unspecified)	5%	-6	-7	10	-0.7	.	.	.	.	1
CC(OCC(O)CN(C)CCOc1ccccc1)c1ccc(Cl)cc1 (stereo unspecified)	-1%	35	-1	10.0	.	-14	-16	10	.	-12
CCOC(=O)C1CCN(C(=O)c2ccc(Oc3cc(Cl)cc(Cl)c3)o2)CC1	-9%	5	-6	-1.3	-1.0	-34	-35	-0.7	-1.2	-21
CCOc1ccccc1N1CCN(C2=C(NS(=O)(=O)c3cccs3)C(=O)c3ccccc3C2=O)CC1	16%&11%	20	19	3.8	-0.6	.	.	.	.	21
CC1(O)N(CCC(=O)Nc2cccc(F)c2)C(=O)OC12CCCCC2 (stereo unspecified)	-1%	-8	-2	-3.1	0.3	14	-3	1.9	-2.0	-3
Cc1ccc(NC(=O)Cn2c([N+](=O)[O-])cnc2C)cc1Cl	-2%	-1	1	4.7	0.3	7	16	2.6	0.3	5
CCOc1ccc(NC(=O)CNC(=O)c2ccc(OC)cc2)cc1	13%	1	-3	-3.2	1.1	11	8	2.2	1.0	-1
O=C(c1cc2c(ccc3ccccc32)o1)N1CCCCC1	-7%	15	1	6.0	1.4	-11	-8	2.1	-1.7	-10
CCCc1cc(=O)n(-c2nc3ccccc3s2)[nH]1	18%	-6	-2	-3.7	-0.7	7	3	-2.1	-1.2	12
O=C(COC(=O)Cc1ccsc1)Nc1ccc(S(=O)(=O)N2CCOCC2)cc1	.	10	-8	-1.9	0.8	10	11	7.9	1.3	-20
N#Cc1cn(CCOc2ccc(F)cc2)c2ccccc12	-4%	-19	-6	-0.9	-0.9	.	.	.	.	-5
COc1cccc(NC(=O)c2cc3cccc(OC)c3o/c2=N\O)c1	.	-11	0	5.8	-5.6	.	.	.	.	.
COc1ccc(NC(=O)C2CCCN(S(C)(=O)=O)C2)cc1Cl (stereo unspecified)	6%	7	-3	3.5	1.7	16	2	2.3	-6.7	0
COc1ccc(NC(=O)CN(C)C(=O)c2cc3c(s2)CCC3)cc1	.	-17	-1	0.8	0.8	.	.	.	.	-7
O=C(c1ccccc1NS(=O)(=O)c1ccc(Br)cc1)N1CCOCC1	.	-1	-4	-0.1	1.7	8	2	-0.7	0.1	-1
CC(=O)/C=C(\C)Nc1ccc(-c2cnc(-c3ccccc3)o2)cc1	25%	-3	0	-4.1	-7.5	.	.	.	.	-3
Cc1nc(Nc2ccc(S(N)(=O)=O)cc2)sc1C(=O)Nc1ccccc1	69%	-1	3	-3.2	-0.7	-35*	-27*	-3.8*	2.6	13
